# Assay outcomes deposited in PubChem by several laboratories.
# HSV augment = enhancers of HSV replication in host cells, fold increase, host cell viability; HSV replication augmentation in cells; maximum fold increase; 0.005% of 220,000 active;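 active means peak rise of 1.5-fold or more in the series; tested in PC3 cells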;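 further: first round at 10 µM; read as green reporter fluorescence; hits show the peak of a series up to 25 µM; 1 = signal of infected wells without compound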
# RGS16-Gao = modulators of RGS16 binding to Galphao, primary screen, biochemical, human proteins, multiplexed bead flow cytometry; 0.38% of 220,000 active; binding response (% of control), % at 10 µM; AID 1441, 2008; Regulator of G-protein signaling 16 (Homo sapiens) + Guanine nucleotide-binding protein …; bead-based flow cytometry RGS16-Galphao binding, fluorescence; actives lie on both sides;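 active means below 25% or above 175%, edge rows of some plates excepted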;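 further: Galphao activated by GDP with aluminum fluoride before binding; 100% = wells without compound and 0% = beads without RGS; some results beyond the cut were filed as inactive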
# Target sequence (O15492 whole entry, looked up): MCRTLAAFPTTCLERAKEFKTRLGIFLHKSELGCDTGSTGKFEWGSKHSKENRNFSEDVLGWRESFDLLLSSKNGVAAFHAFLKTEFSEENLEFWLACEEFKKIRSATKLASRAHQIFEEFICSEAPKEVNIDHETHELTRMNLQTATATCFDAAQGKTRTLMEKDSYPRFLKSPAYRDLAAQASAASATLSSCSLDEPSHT
# Target sequence (P09471 whole entry, looked up): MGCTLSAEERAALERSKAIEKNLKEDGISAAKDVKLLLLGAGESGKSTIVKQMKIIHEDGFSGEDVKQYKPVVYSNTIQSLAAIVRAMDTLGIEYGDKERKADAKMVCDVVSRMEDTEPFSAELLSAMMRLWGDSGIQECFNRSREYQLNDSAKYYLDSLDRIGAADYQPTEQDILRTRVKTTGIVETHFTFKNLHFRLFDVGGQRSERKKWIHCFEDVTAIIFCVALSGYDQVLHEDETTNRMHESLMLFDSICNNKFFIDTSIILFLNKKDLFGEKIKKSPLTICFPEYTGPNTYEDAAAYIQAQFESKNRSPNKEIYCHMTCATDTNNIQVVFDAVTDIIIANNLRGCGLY
# GALR2 ag = GALR2 receptor agonists, primary screen, cell-based | activation, %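 (tested at 5 µM)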 | 0.48% of 140,000 active | GALR2-expressing cells, agonist activation read-out;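 active means above mean plus 3 SD of all compounds, about 5% in these data, not always enough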;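 further: 0% = vehicle buffer wells and 100% = reference agonist at full effect; tested in CHO reporter cells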
# Target sequence (O43603 whole entry, looked up): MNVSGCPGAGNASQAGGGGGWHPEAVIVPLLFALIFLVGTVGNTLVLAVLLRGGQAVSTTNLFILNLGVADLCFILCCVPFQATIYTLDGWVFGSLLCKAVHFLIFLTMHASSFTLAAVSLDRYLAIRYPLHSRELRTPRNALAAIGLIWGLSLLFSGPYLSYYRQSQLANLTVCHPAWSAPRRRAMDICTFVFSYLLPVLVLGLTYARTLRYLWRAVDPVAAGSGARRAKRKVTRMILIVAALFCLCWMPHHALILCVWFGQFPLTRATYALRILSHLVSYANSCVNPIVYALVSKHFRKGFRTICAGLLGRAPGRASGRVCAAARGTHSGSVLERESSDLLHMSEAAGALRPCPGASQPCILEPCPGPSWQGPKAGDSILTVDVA
# PKD1 kinase inh = inhibitors of human PKD1 kinase, biochemical, fluorescence polarization; 0.056% of 200,000 active; inhibition, %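 (about 10 µM by stock and volumes)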; PKD1 kinase fluorescence polarization assay;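 active means inhibition of 50% or more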;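 further: controls were vehicle for no effect and a reference inhibitor for full effect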
# INS promoter inh = inhibitors of insulin promoter-driven GFP, primary screen, imaging, TRM-6 cells (human fetal islet line), eGFP reporter, cell count. reporter expression induced with tamoxifen. inhibition, % at 2 µM. 0.9% of 130,000 active. AID 1273, 2008;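 active means inhibition above the mean plus 3 SD, with well images judged a real hit on visual review, cut at about 60% in these data, passing the limit was not always enough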
# INS promoter inh cell count = further read-out of INS promoter inh, marked with its call; normalized cell count, %; measured here: cell count, toxicity; reference of the scale not given here;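 cells exposed to compound for 48 h; stained nuclei by imaging scaled within each plate; lower means fewer cells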
# HSV augment primary fold = further read-out of HSV augment, marked with its call; fold increase; compound at 10 µM; measured here: primary screen fold increase 10 uM; tested in PC3 cells;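 GFP signal in the first replicate; 1 = infected wells without compound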
# An asterisk follows results filed as active; i = inactive; x = not tested or not shown; & = joins results of further samples.
SMILES,HSV augment,HSV augment primary fold,RGS16-Gao,GALR2 ag,PKD1 kinase inh,INS promoter inh,INS promoter inh cell count
CCN(CC)c1ccc(C=Nc2ccccc2C)c(O)c1,i,0.95,102,-1.7,-6,-6,136
O=C(N/N=C/c1ccc([N+](=O)[O-])cc1)c1cc(C2CC2)nc2ccccc12,i,0.8,100,x,x,x,x
Cc1nn(-c2ccccc2)c2c1C(c1ccc(Br)s1)C(C#N)=C(N)O2 (stereo not given),i,0.99,87,x,-10,0,69
CC(C(=O)NCCC1=CCCCC1)N1C(=O)c2ccccc2C1=O (stereo not given),i,0.93,103,-1.0,-11,x,x
CCOC(=O)C1(Cc2cccc(F)c2)CCN(CCCn2cccn2)CC1,i,0.94,100,x,x,x,x
CC(c1ccccc1)n1cc(C(=O)NCCCn2ccnc2)nn1 (stereo not given),i,1,101,-3.5,-8,5,78
Cc1nc(Sc2ccc(Br)cc2)c(C#N)c(C)c1[N+](=O)[O-],i,0.85,97,x,x,x,x
COc1cccc(CNCc2ccccn2)c1OC,i,1.1,100,-0.9,-11,x,x
Cc1ccccc1OCC(=O)Nc1cc(S(=O)(=O)N2CCCCC2)ccc1N1CCN(C)CC1,i,0.87,101,x,-2,-16,96
Cn1cccc1CC(=O)N/N=C/c1ccc(C(C)(C)C)cc1,i,1.1,103,x,x,x,x
Cc1ccc(S(=O)(=O)NCc2ccc(C(=O)N3CCc4ccccc4C3)cc2)cc1,i,0.95,70,-0.5,3,27,86
COc1cc(C)ccc1OCCOCCOc1cc(C)c(C)cc1Br,i,0.99,102,-0.5,-4,-29,97
Cc1noc(C)c1CSc1nc2cc(S(=O)(=O)N3CCOCC3)ccc2o1,i,0.94,67,-0.9,-7,-41,122
O=C(Cn1cncn1)NCc1ccccc1Br,i,0.79,95,-1.5,0,2,143
Cc1ccccc1NC(=O)CN(C)S(=O)(=O)c1cccc2cccnc12,i,0.96,102,-0.8,-6,x,x
O=C(CS(=O)CC(=O)Nc1cccc2c1CCCC2)Nc1ccc(F)cc1 (stereo not given),i,1.1,97,-1.5,-12,-59,83
O=C1NN(c2ccccc2)C(=O)/C1=C/c1ccc(-c2ccc(Cl)c(C(=O)O)c2)o1,i,0.94,101,x,5,x,x
O=C(NCc1cccnc1)c1cccc(Cl)c1,i,0.88,99,-1.7,-4,30,110
CC(C)C(C(=O)NCc1ccco1)N(C(=O)CNS(=O)(=O)c1ccc(Cl)cc1)C1CCCC1 (stereo not given),i,0.89,98,-0.7,-19,x,x
CN(C)CC(=O)N1c2ccccc2Sc2ccc(Cl)cc21,i,1,110,x,4,x,x
COc1ccc(N=C2SC(CC(=O)Nc3ccccc3)C(=O)N2CCc2ccccn2)cc1 (stereo not given),x,x,113,-0.4,-7,15,117
C/C(=N\Nc1nc(N2CCOCC2)nc(N2CCOCC2)n1)c1cccc([N+](=O)[O-])c1,i,1,99,x,3,x,x
O=C(NCc1ccc2c(c1)OCO2)C1CC(=O)N(c2ccc(O)cc2)C1 (stereo not given),i,0.98,132,-3.2,-8,-67,146
CC(=O)Nc1c(C(=O)O)oc2ccccc12,i,0.91,96,-1.5,-7,x,x
NC(=O)Nc1ccccc1C(=O)NCCc1ccccc1,i,0.93,102,-1.7,-7,-23,128
# Following part
SMILES,HSV augment,HSV augment primary fold,RGS16-Gao,GALR2 ag,PKD1 kinase inh,INS promoter inh,INS promoter inh cell count
Cc1cccn2c(=O)c3cc(C#N)c(=NC(=O)c4ccco4)n(Cc4ccco4)c3nc12,i,1.1,93,x,x,x,x
O=C(NCC12CC3CC(CC(C3)C1)C2)c1nn2c(c1Cl)NC(c1ccco1)CC2C(F)(F)F (stereo not given),x,x,118,-1.5,-6,-61,30
CN(c1cccc(NC(=O)CN(c2cccc(Cl)c2)S(=O)(=O)c2ccc(Cl)cc2)c1)S(C)(=O)=O,i,1,104,-1.8,-13,29,124
Cc1cc(C(=O)O)c2ccccc2n1,i,1,100,-0.6,-3,-12,93
Cc1ccc(C(=O)/C=C/c2c[nH]c3ccccc23)cc1,i,0.9,99,6.3,-14,-10,101
NNc1nccc(Nc2ccccc2C(=O)O)n1,i,1,103,0.0,7,-6,88
Cn1c(C(=O)O)c(C=O)c2ccccc21,i,0.63,94,x,-6,8,95
CC(NC(=O)CCCN1C(=O)c2ccccc2C1=O)c1ccc2c(c1)CCCC2 (stereo not given),i,0.88,104,-1.4,-1,14,100
O=C(CSc1ccccc1)N1CCC(N2CCC(C(=O)N3CCCC3)CC2)CC1,i,1,101,x,-2,x,x
CCN(CC)S(=O)(=O)c1cccc(C(=O)N/N=C(\C)c2ccc(O)cc2O)c1,i,0.95,90,x,-6,x,x
COC(=O)C(NS(=O)(=O)c1ccc(NC(C)=O)cc1)C(C)C (stereo not given),i,1,99,-1.0,-6,x,x
Cc1ccc(S(=O)(=O)N2CCOCC2)cc1NC(=O)CSc1nnc(N)s1,i,0.99,103,x,5,x,x
CCN1C(=O)c2ccccc2S(=O)(=O)c2ccc(C(=O)N3CCOCC3)cc21,i,0.89,106,-1.0,5,x,x
S=C(Nc1ccc(Cl)cc1)N1CCN(C2CCCCC2)CC1,i,0.86,100,-2.1,3,x,x
CC1(C)Cc2ccccc2-c2nc(-c3ccccc3)oc(=O)c21,i,1.1,100,-2.0,1,8,106
COc1ccc2nc(Nc3nc4cc5c(cc4s3)OCO5)sc2c1,i,0.88,98,6.8*,-9,-12,77
COc1cc(/C=N/NC(=O)c2cccc([N+](=O)[O-])c2)ccc1OCc1ccccc1,i,0.78,104,-0.6,-15,-29,85
O=C(O)CCCC(=O)Nc1ccc(C(=O)NCc2cccnc2)cc1,i,0.96,102,-4.1,-6,59,136
O=C(COC(=O)CCc1ccc(S(=O)(=O)N2CCOCC2)cc1)NC(=O)NC1CCCCC1,i,0.96,104,x,-3,-56,114
COc1ccc(CN2CCNC(=O)C2CC(=O)NC2Cc3ccccc3C2)c(OC)c1 (stereo not given),i,0.93,106,x,-6,-55,80
c1cncc(COC2CCCN(Cc3nc(-c4cccs4)no3)C2)c1 (stereo not given),i,0.96,105,x,-8,x,x
CCN(CC)CCNC(=O)c1ccc(NC(C)=O)cc1,i,0.93&1,96,-1.1,-10,-4,78
COC(=O)c1sc(NC(=O)COc2cccc(C)c2)nc1C,i,0.99,106,-0.2,6,-29,147
Cc1ccc(C(=O)NC(=O)CSc2ncccc2C(=O)O)cc1,i,1.1,104,x,1,x,x
Cc1occc1C(=O)NNC(=O)C1CC1,i,0.96,100,x,3,41,171
# Additional entries
SMILES,HSV augment,HSV augment primary fold,RGS16-Gao,GALR2 ag,PKD1 kinase inh,INS promoter inh,INS promoter inh cell count
O=C(NCCc1ccccc1)c1ccc(Cl)nc1,i,0.99,119,-1.6,0,19,174
COc1ccccc1N1CCN(C(=O)C2CC=CCC2C(=O)O)CC1 (stereo not given),i,1.1,101,-0.1,-5,-58,180
COc1cccc(CNn2cnnc2)c1OCc1ccc(F)cc1,i,0.96,100,-1.5,-8,6,78
O=C1CC(c2c(F)cccc2Cl)C2=C(COC2=O)N1 (stereo not given),i,0.96,116,-3.0,-4,-16,128
CCCCc1cc(=O)oc2cc(C)cc(OCc3nn[nH]n3)c12,i,0.98,104,0.7,2,-6,72
CC(C)C(=O)Nc1cc(=O)[nH]c2ncnn12,i,0.89,73,-2.5,-3,50,103
N=C1/C(=C/c2coc3ccccc3c2=O)C(=O)N=C2SC(c3ccco3)=NN12,i,1.1,102,x,x,x,x
Nc1nc(-c2ccc([N+](=O)[O-])cc2)c(C(=O)Nc2ccc(Cl)cc2)s1,i,0.95,71,x,x,x,x
O=C1CCC(C(=O)OCc2ccccc2)N1 (stereo not given),i,0.89,104,0.3,-6,21,117
CCn1c2c(c3cc(Br)ccc31)CCC/C2=N\O,i,0.87,96,-1.1,-4,19,140
CCN(c1ccccc1)c1ncnc2c1cnn2-c1ccccc1,i,1,99,-1.3,1,x,x
O=C(CN(C(=O)c1ccccc1Cl)N1C(=O)C2C3C=CC(C3)C2C1=O)c1cccs1 (stereo not given),i,0.98,101,x,-5,x,x
COc1cc(CN2CCN(c3ccccc3C)CC2)cc([N+](=O)[O-])c1O,i,1.1,168,-0.7,-12,52,70
c1ccc(-c2nnc(-c3ccccc3)c(-c3c[nH]c4ccccc34)n2)cc1,i,0.88,103,0.1,-6,23,122
COc1ccc2[nH]c(=O)c(CN(CCO)C(=O)NCc3ccccc3)cc2c1,i,0.69,90,-0.3,2,9,145
O=C(NNC(=S)Nc1ccc(F)cc1)C1CC1c1ccc(Cl)cc1 (stereo not given),i,1,100,0.1,-1,-60,94
O=C(COn1nnc2ccc(Cl)cc21)Nc1ccc(F)cc1,i,0.84,98,x,6,25,102
CSc1ncc(Cl)c(C(=O)Nc2nnc(SC)s2)n1,i,1,110,-1.8,-6,23,115
CC1CC(C#N)N(N(C)C)C1=C(C#N)C#N (stereo not given),i,0.83,90,x,x,x,x
COc1ccc(C(=O)Nc2ccc(/C(C)=N/NC(=O)c3ccccc3O)cc2)cc1OC,i,0.89,92,-3.0,-1,16,54
Cc1ccc(S(=O)(=O)N2CCN(CC(O)c3ccccc3)CC2)cc1C (stereo not given),i,1.1,104,x,0,56,89
CCN(CC)CCCNc1oc(-c2ccc(OC)c(OC)c2)nc1C#N,i,0.98,103,-1.9,2,-57,106
Cc1c(-c2cccs2)[n+](=O)c2c(n1[O-])CCC2,i,1.1,61,-0.8,-11,14,112
Cc1ccccc1/C=N/NC(=O)Cn1nnc(N)n1,i,1,93,-0.6,-4,24,91
O=[N+]([O-])c1ccccc1S(=O)(=O)NCCc1ccncc1,i,0.85,98,x,-9,10,106
# Continued.
SMILES,HSV augment,HSV augment primary fold,RGS16-Gao,GALR2 ag,PKD1 kinase inh,INS promoter inh,INS promoter inh cell count
COc1ccc(C(=O)/C=C/c2ccc(OC)c(COc3ccc(F)cc3)c2)cc1,i,0.98,104,-0.6,5,3,165
N/C(=N\OC(=O)Cc1ccc([N+](=O)[O-])cc1)c1ccccn1,i,0.79,101,x,-2,27,118
Cc1ccc(CSc2nc3nc(C)cc(C)c3c(=O)[nH]2)cc1,i,0.73,98,x,-3,54,96
O=C(NCc1ccccn1)c1cc2cc(Br)ccc2oc1=O,i,0.89,95,-1.3,-9,-17,60
CCN(CC)c1nc(Oc2ccc(=O)[nH]n2)nc(N2CCOCC2)n1,i,0.91,105,0.6,-8,8,168
O=C(CSc1ccc(-c2ccccn2)nn1)NC1CCCC1,i,1,92,x,-2,x,x
COc1cc(C2C(C#N)=C(N)Oc3c2c(-c2ccccc2)nn3-c2ccccc2)cc(OC)c1OC (stereo not given),i,0.82,104,2.6,2,x,x
Cc1ccc(P(=O)(OCCN2CCOCC2)C(C)(C)C)o1 (stereo not given),i,0.97,105,-0.7,2,7,78
CC(C)C(c1nnnn1CCc1ccccc1)N1CCSCC1 (stereo not given),i,0.92,99,x,-1,-33,172
Cc1ccc(S(=O)(=O)N(CCC(=O)Nc2ccc(OC(F)(F)F)cc2)c2ccccc2)cc1,i,1,102,-2.6,-1,19,88
Cc1ccccc1/C=C\c1nc2ccccc2c(=O)[nH]1,i,0.67,110,x,-6,x,x
CCOC(=O)c1[nH]c2ccccc2c1NC(=O)COC,i,0.84,102,-1.8,6,x,x

# 11 entries from above, with tabs:
smiles	HSV augment	HSV augment primary fold	RGS16-Gao	GALR2 ag	PKD1 kinase inh	INS promoter inh	INS promoter inh cell count
CCN(CC)c1ccc(C=Nc2ccccc2C)c(O)c1	i	0.95	102	-1.7	-6	-6	136
O=C(N/N=C/c1ccc([N+](=O)[O-])cc1)c1cc(C2CC2)nc2ccccc12	i	0.8	100	x	x	x	x
Cc1nn(-c2ccccc2)c2c1C(c1ccc(Br)s1)C(C#N)=C(N)O2 (stereo not given)	i	0.99	87	x	-10	0	69
CC(C(=O)NCCC1=CCCCC1)N1C(=O)c2ccccc2C1=O (stereo not given)	i	0.93	103	-1.0	-11	x	x
CCOC(=O)C1(Cc2cccc(F)c2)CCN(CCCn2cccn2)CC1	i	0.94	100	x	x	x	x
CC(c1ccccc1)n1cc(C(=O)NCCCn2ccnc2)nn1 (stereo not given)	i	1	101	-3.5	-8	5	78
Cc1nc(Sc2ccc(Br)cc2)c(C#N)c(C)c1[N+](=O)[O-]	i	0.85	97	x	x	x	x
COc1cccc(CNCc2ccccn2)c1OC	i	1.1	100	-0.9	-11	x	x
Cc1ccccc1OCC(=O)Nc1cc(S(=O)(=O)N2CCCCC2)ccc1N1CCN(C)CC1	i	0.87	101	x	-2	-16	96
Cn1cccc1CC(=O)N/N=C/c1ccc(C(C)(C)C)cc1	i	1.1	103	x	x	x	x
Cc1ccc(S(=O)(=O)NCc2ccc(C(=O)N3CCc4ccccc4C3)cc2)cc1	i	0.95	70	-0.5	3	27	86
